From PubChem BioAssay
LANA-H2A inh: blocks KSHV LANA binding to histone H2A/H2B; Q9QR71; cell-free LANA-H2A/H2B peptide, fluorescence polarization; inhibition, % (no concentration beside the values); 320,000 compounds, 0.6% hits; AID 2629; in the data active = inhibition mostly above about 10%, no sharp cut-off; inactive = mostly below about 6.7%;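 also: stock transfer was 7.5 nL into about 10 µL; 0% = median of vehicle wells and 100% = median of positive control wells; one replicate is shown; the record names a cut of 25% in any replicate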
Target sequence (Q9QR71 whole entry, looked up): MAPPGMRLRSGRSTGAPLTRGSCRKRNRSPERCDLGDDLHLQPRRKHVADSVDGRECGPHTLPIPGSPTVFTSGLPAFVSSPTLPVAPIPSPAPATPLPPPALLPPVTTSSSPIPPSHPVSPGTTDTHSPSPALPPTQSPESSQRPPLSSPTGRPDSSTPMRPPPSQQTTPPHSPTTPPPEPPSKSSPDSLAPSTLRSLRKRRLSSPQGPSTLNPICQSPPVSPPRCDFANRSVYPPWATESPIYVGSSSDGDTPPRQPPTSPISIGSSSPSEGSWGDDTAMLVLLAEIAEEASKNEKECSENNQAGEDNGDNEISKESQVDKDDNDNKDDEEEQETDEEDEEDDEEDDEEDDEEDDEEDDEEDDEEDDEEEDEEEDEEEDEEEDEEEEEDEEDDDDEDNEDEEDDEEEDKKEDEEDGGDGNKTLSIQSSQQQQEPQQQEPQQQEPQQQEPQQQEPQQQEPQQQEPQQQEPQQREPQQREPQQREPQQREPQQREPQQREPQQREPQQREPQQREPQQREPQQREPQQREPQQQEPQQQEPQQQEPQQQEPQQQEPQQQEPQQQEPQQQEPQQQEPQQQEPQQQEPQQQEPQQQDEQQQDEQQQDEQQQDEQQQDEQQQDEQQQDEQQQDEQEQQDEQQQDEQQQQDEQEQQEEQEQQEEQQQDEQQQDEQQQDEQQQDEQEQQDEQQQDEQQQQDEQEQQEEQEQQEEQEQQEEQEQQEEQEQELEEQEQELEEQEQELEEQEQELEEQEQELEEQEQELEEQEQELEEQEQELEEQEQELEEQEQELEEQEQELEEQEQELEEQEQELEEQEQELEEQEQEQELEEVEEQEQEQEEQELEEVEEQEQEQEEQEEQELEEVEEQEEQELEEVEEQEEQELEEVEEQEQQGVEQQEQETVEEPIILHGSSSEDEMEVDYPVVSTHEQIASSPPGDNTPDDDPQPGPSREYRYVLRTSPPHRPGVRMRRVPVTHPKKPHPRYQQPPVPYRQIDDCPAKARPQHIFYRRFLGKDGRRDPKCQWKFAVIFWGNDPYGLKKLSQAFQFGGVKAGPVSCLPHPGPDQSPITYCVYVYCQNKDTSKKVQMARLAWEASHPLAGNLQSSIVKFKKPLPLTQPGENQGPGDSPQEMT
Beta2AR agonist: activates human beta-2 adrenergic receptor causing internalization; P07550; Am2.2-beta2AR cells, FAP receptor internalization, flow cytometry; reference of the scale not given here; response, % (test concentration not listed); 340,000 compounds, 0.43% hits; AID 504454;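 active = response above a set limit, near 3 SD of response in nonfluorescent compounds, cut at about 42% in these data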;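 also: stock transfer was 100 nL into about 11 µL; a reference agonist was the positive control; negative values mostly stem from fluorescent compounds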
Calb FLC: C. albicans growth modulation with fluconazole; C. albicans CaCi-2 (fluconazole-resistant clinical isolate) + fluconazole, Alamar Blue growth, 48 h; growth inhibition, % (test concentration not listed); 300,000 compounds, 0.57% hits; AID 1979;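 active = most replicates above 75%; inconclusive = exactly half above 75%; inactive = most below 75%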;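 also: all wells also contain fluconazole at 8 µg/ml as a sub-toxic cotreatment; 0% = median of DMSO wells and 100% = median of geldanamycin control wells; wells of about 8 µL received 7.5 nL stock; the first replicate is given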
ALR inh: blocks human ALR sulfhydryl oxidase activity; P55789; purified ALR, DTT oxidation, H2O2 HRP-luminol luminescence; inhibition, % (test concentration not listed); 290,000 compounds, 3.8% hits; AID 485317;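 active = mean and each replicate at 75% or more; inconclusive = only one of the two met; inactive = neither met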;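 also: stock transfer was 7.5 nL into about 7.5 µL; 0% = neutral wells and 100% = wells with inactivated enzyme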
Vif TR-FRET: inhibitors of Vif binding to APOBEC3G peptide, primary screen, biochemical, TR-FRET, GST-Vif 1-94, biotin-A3G peptide, dose response retest (AID 1117319); TR-FRET GST-Vif / biotin-A3G peptide binding; higher % means a stronger effect; test concentration not given here; strong numbers were not always called active; inhibition, %; hits with a dose series show IC50 in µM; 260,000 compounds, 0.57% hits;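 active = above the screen mean plus three standard deviations and confirmed in dose response; inconclusive = results disagree or hit not tested in dose response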;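 also: Vif residues 1-94 fused to GST binding biotinylated APOBEC3G peptide 110-148; 0% = full assay without inhibitor and 100% = GST in place of GST-Vif; retest series ran down from 100 µM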
RanGTP-Imp inh: inhibitors of RanGTP-importin-beta interaction, primary screen, biochemical, FRET, CFP-Ran, YFP-importin-beta, homogeneous. cell-free CFP-Ran/YFP-importin-beta FRET ratio. inhibition, % (concentration not given with the values). 300,000 compounds, 1.1% hits. AID 2216;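 active = most replicates above 15%; inconclusive = exactly half above 15%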;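 also: 0% = DMSO wells and 100% = Ran loaded with GDP instead of GTP; wells of about 40 µL received 100 nL stock; the first replicate is given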
HNF4A DNA FP: change in binding of human HNF4 alpha to DNA; activity change, % at 10 µM; P41235; HNF4a-FITC DNA binding, fluorescence polarization, 1 h; 360,000 compounds, 0.3% hits; in the data active = activity change above about 30%, passing the limit was not always enough;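 also: controls were the assay level and a saturating level of protein; the project sought stronger binding though the title names inhibitors; some compounds called inactive have numbers as strong as hits; positive values seem to mean higher polarization but the record does not say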
An asterisk follows results filed as active; ? = inconclusive; · = not tested or not shown; & = joins results of further samples.

mol,LANA-H2A inh,Beta2AR agonist,Calb FLC,ALR inh,Vif TR-FRET,RanGTP-Imp inh,HNF4A DNA FP
Oc1ccccc1N=Cc1c(O)ccc2oc3c(c12)CCCC3,17,14,-12,·,15%,-2.3,-26
Cc1[nH]c(=O)[nH]c(=O)c1S(=O)(=O)N1CCC(C(=O)NC(C)c2ccccc2)CC1 (stereo not given),9.0,0,-6,2,9%,3.4,0.3
CC1CN(C(=O)c2cccc(COc3ccc(Br)cc3)c2)CC(C)O1 (stereo not given),4.1,-6,-3,-43,5%,-3.5,-1.2
O=C(Nc1ccccc1C(=O)N1CCOCC1)c1ccc(CSc2ccccc2)cc1,-2.9,-10,-12,-5,5%,0.7,9.2
O=C(NCCCO)c1cc2ccccc2[nH]1,-0.6,-1,-2,0,3%,3.7,2.2
NS(=O)(=O)c1ccc(NC(=O)CSc2ncn[nH]2)cc1,1.4,-2,-8,-27,0%,2.4,4.5
CN(C)C(CNC(=O)c1cc(Br)ccc1Cl)c1ccco1 (stereo not given),0.4,4,4,1,3%,3.9,4.7
Cc1cc(NC(=O)CCC(=O)N(CC(=O)NC2CCCC2)c2ccc(Cl)c(Cl)c2)no1,-1.7,-3,3,-5,0%,5.2,0.7
O=S(=O)(c1ccccc1)N1CCN(C(=S)NCCc2ccccc2)CC1,0.8,8,-4,-8,2%,-0.3,1.5
CN(C)CCCNCC(=O)c1c(-c2ccccc2)n(C)c2ccccc12,-2.5,9,-4,·,1%,1.9,0.3
O=C(CSc1n[nH]c(=O)n1Cc1ccccc1)Nc1ccc(F)c(F)c1F,1.0,-3,4,-2,10%,5.8,0.9
CCOC(=O)C1=CN(Cc2ccco2)S(=O)(=O)N(C)C1c1cccc(OC)c1 (stereo not given),·,-1,·,·,-4%,·,-2.7
COc1ccc(C2=NOC(C(=O)Nc3cccnc3)C2)cc1OC (stereo not given),4.3,-7,0,-21,0%,3.6,-0.7
N#C/C(=C\c1ccc(O)c(O)c1)C(=O)c1ccc(O)c(O)c1,2.1,2,·,100*,·,·,-7.4
Cc1noc(NS(=O)(=O)c2ccc(NC(=O)C34CCC(CC3)C4)cc2)c1C,3.6,0,-9,6,-1%,-2.5,-0.3
C/C=C(\C)C(=O)Nc1cccc(C2=NOC3(C2)C[C@@H](C(N)=O)N(C(=O)c2cc([N+](=O)[O-])cc([N+](=O)[O-])c2C)C3)c1 (stereo not given in full),1.8,-7,5,-9,10%,2.9,2.0
COc1ccc(NC(=O)C2CC2)cc1-n1cnnn1,1.3,6,0,-3,4%,-2.9,-1.7
CCN1CCN(C(CNS(=O)(=O)c2ccc(Cl)cc2)c2cccnc2)CC1 (stereo not given),-1.8,-1,5,-5,·,0.8,0.1
CC/C(=C/c1sc2ccc(C)cc2[n+]1CCO)SC,-1.5,3,-2,·,·,?,7.2
Brc1ccc(/C=N/n2cnnc2)s1,-0.4,-8,-2,-4,4%,4.6,-2.5
Cc1cc(NC(=O)c2cc3ccccc3oc2=O)no1,·,-3,·,·,2%,·,-4.1
CCCNC(=O)c1cc(S(=O)(=O)N2CCc3ccccc32)ccc1F,0.9,-1,7,-3,?,3.5,3.1
COc1cc([C@@H]2[C@H]3CN(C)CC=C3C(C#N)=C(N)C2(C#N)C#N)cc2c1OCO2,9.4,14&7,5,13,2%&4%,24*,-14&-19
O=C(Nc1ccccc1)Nc1cccc(-c2cn3cccnc3n2)c1,1.0,2,6,-3,·,0.4,4.0
Cc1ccc(S(=O)(=O)N(C)c2cc(S(=O)(=O)N3CCOCC3)c(C)cc2C)cc1,-4.2,11,-2,-4,·,-1.1,3.4
Cc1ccc(P(=O)(O)c2ccc(C)cc2)cc1,-1.3,-12,10,-4,7%,?,-1.0
[O-]/C(=C(\C(=S)Nc1cccc2ccccc12)[n+]1ccccc1)c1ccc(OC(F)F)cc1,·,2,·,·,-4%,·,10
O=C(NCC(=O)N(c1cccc(F)c1)C(C(=O)NC1CCCC1)c1ccco1)c1ccco1 (stereo not given),-0.2,-2,5,-3,13%,-2.3,5.6
CCNc1nc(NC(C)C)nc(NS(=O)(=O)c2ccc(N)cc2)n1,4.3,9,-5,-5,20%,1.0,-4.1
COc1ccc(S(=O)(=O)Nc2ccc(Cl)cn2)c(C)c1C,0.4,-6,19,-11,-2%,1.5,1.9

mol,LANA-H2A inh,Beta2AR agonist,Calb FLC,ALR inh,Vif TR-FRET,RanGTP-Imp inh,HNF4A DNA FP
CN(C)C(=S)Oc1ccccc1-c1ccccc1OC(=S)N(C)C,-1.3,-6,-3,-15,·,0.7,1.7
CCCc1cc(-c2ccc3c(c2)COc2c4ccccc4nn2-3)on1,-3.9,9,14,7,·,-4.4,-0.2
Cc1ccc(/C(=N\O)c2oc3c(C)c4oc(=O)cc(C)c4cc3c2C)cc1,1.7,13,31,4,-7%,-0.5,-2.3
CC(C)CC(=O)Nc1c2c(nn1-c1cccc(Cl)c1)CS(=O)(=O)C2,0.4,2,-5,-4,6%,0.5,-2.6
Cc1ccc(CN2C(=O)CCC2C(=O)NCCN2CCN(c3cccc(Cl)c3)CC2)cc1 (stereo not given),-1.2,-1,0,64,-1%,2.6,2.2
c1ccc(CSC2=NNC(c3ccccn3)S2)cc1 (stereo not given),-2.9,3,5,2,17%,1.5,2.9
O=C(Nc1cc(Cl)ccc1N1CCCC1)C1=NN(c2ccccc2)C(=O)CC1,0.4,1,-3,-9,·,-2.8,-7.8
CCc1ccccc1NC(=S)/N=C(\N)Nc1nc(C)c2cc(C)ccc2n1,-2.2,1,8,-1,·,3.8,2.1
Cc1[nH]nc(SCC(=O)NCCc2ccccc2)c1[N+](=O)[O-],12*,-13,3,1,28%,-1.2,-4.2
CCOc1cc(C(=O)NCCN2CCOCC2)cc(OCC)c1OCC,3.1,6,32,-11,18%,2.5,0.2
COc1ccccc1CNC(=O)COC(=O)CNS(=O)(=O)c1ccc(NC(C)=O)cc1,-6.0,11,·,·,-6%,·,-1.2
COc1ccc(N2CCCn3c2nc2c3c(=O)n(Cc3ccc(C)cc3)c(=O)n2C)c(OC)c1,-7.7,12,-3,-41,·,0.3,4.4
COc1cc2c(cc1OC)C(c1ccccc1O)N(C1CC(=O)N(c3ccccc3)C1=O)CC2 (stereo not given),-1.1,7,·,·,4%,·,1.4
Nc1nnc(SCc2ccc(F)cc2Cl)s1,-2.9,13,-15,-9,16%,-3.6,-0.7
O=C(NCCc1ccccc1)c1ccc(CS(=O)(=O)c2ccc(Br)cc2)o1,7.8,-11,-1,-24,9%,2.2,-0.7
O=C(CCCN1C(=O)/C(=C\c2cccs2)SC1=S)Nc1ccc(C(=O)O)cc1,-2.4,-1,-1,-16,17%,3.3,11
CCOc1ccccc1OCCCC(=O)N(CC)CC(=O)Nc1ccc(NC(C)=O)cc1,-1.3,-4,1,-5,-7%,-4.7,-2.1
O=C(CCN1CCN(c2ccccc2)CC1)Nc1ccc(OCc2ccccc2)cc1,-1.6,2,-6,-6,-4%,0.7,-0.6
O=C(CN1CCN(C(=O)c2ccco2)CC1)Nc1cc(Cl)ccc1Cl,3.2,-10,37,-7,0%,6.4,-2.4
CCCOC(=O)C1[C@H]2C(=O)N(C(C)c3ccc(OC)cc3)C[C@]23C=C[C@H]1O3 (stereo not given in full),-1.9,4,2,-14,2%,0.9,0.0
CCOC(=O)N1CCN(Cc2nc3cc(NC(=O)CC(C)C)ccc3n2CC)CC1,-1.5,-8,-4,-24,-6%,5.8,-3.6
CC(C(=O)Nc1ccccc1-c1ccccc1)N1CCOCC1 (stereo not given),0.6,10,1,1,12%,3.7,0.3
COCCNC(=S)NC1CC2CCCC(C1)N2Cc1cccs1 (stereo not given),-2.0,2,9,3,-5%,4.2,1.6
COc1ccc(/C=C/C(=O)Nc2cc(C(F)(F)F)ccc2Cl)cc1,1.4,-15,-7,-5,-1%,0.0,0.9
COCCn1c(-c2ccc(OC)c(OC)c2)nc2ccccc21,1.6,-21,-4,-37,-2%,2.2,-0.1
COc1cccc(-n2c(SC)nnc2-c2c[nH]c3ccccc23)c1,1.7,2,-9,-1,-1%,-3.9,-2.8
CCN(CC)C(=O)Cn1cc(S(=O)(=O)CC(=O)NCc2ccccc2)c2ccccc21,-1.1,-4,-5,-12,·,0.2,-1.3
C[n+]1ccccc1/C=C/c1c(F)cccc1F,-5.5,7,9,-70,·,?,-0.5
CC(=O)c1ccc(OC(=O)N2CCOCC2)cc1,-3.0,1,-13,-11,21%,1.1,-0.7
COc1ccc([N+](=O)[O-])cc1NC(=O)CS(=O)(=O)c1ccc(C)cc1,0.2,3,-1,·,-7%,0.4,4.5

mol,LANA-H2A inh,Beta2AR agonist,Calb FLC,ALR inh,Vif TR-FRET,RanGTP-Imp inh,HNF4A DNA FP
O=C(O)CSCc1nc2cccnc2n1C1CCCCC1,-0.5,34,1,·,16%,3.5,-1.6
COc1ccc(CNC(=O)COC(=O)c2ccccc2OCC(=O)Nc2ccc(SC(F)F)cc2)cc1,-1.2,0,-1,-5,2%,4.9,1.1
Cc1nn(C(=O)N2CCCCC2)c(C)c1CN1C(=O)c2ccccc2C1=O,2.5,-4,-21,27,2%,2.4,4.7
O=C(c1cccc(F)c1)n1nnc2ccccc21,-2.5,-1,3,·,-1%,-4.7,-3.9
COc1cc(NC(=O)C2CCCC2)c(OC)cc1Cl,3.3,·,9,30,0%,-5.2,0.9
CC(=O)c1cccc(NC(=S)N2CCc3ccccc32)c1,-3.2,-1,-5,-22,4%,-1.3,5.1
CNS(=O)(=O)c1ccc2c(c1)C(=O)c1cc(S(=O)(=O)NC)ccc1CC2,3.9,-13,·,-13,·,·,-6.7
CC1CCCN(S(=O)(=O)c2ccc(NC(=O)C3CCN(C(=O)c4ccco4)CC3)cc2)C1 (stereo not given),-7.7,6,2,1,·,-4.2,1.7
COc1cc2oc(-c3ccc(O)cc3)cc(=O)c2c(O)c1OC,-4.7,-7,8,98*,·,?,-3.7
Cc1ccsc1/C=C1/SC(N2CC(C)OC(C)C2)=NC1=O (stereo not given),3.9,1,-2,99*,4%,7.3,-1.2
COc1cc(/C=N/N=C2/SCC(=O)N2c2ccc(O)cc2)ccc1O,7.7,7,-4,33,-1%,-1.4,1.7
O=C(CC1C[C@H](C(=O)N2CCOCC2)[C@@]2(CCC3CCCC3)c3[nH]c4ccccc4c3CCN2C1=O)NCc1ccco1 (stereo not given in full),-17,7,·,-1,0%,·,-1.5
CCCCn1c(N)c(N(CCOC)C(=O)c2ccc(Br)o2)c(=O)[nH]c1=O,2.0,9,-4,-4,2%,1.2,0.0
Cc1ccc(/C=C/c2onc(C)c2S(=O)(=O)N2CCC(C(=O)N3CCCCC3)CC2)cc1,3.0,8,-3,0,·,-1.7,1.2
O=C(Nc1ccccc1)c1cccc2c(Br)cccc12,-7.1,-3,-8,-10,-5%,4.8,1.0
Cc1ccc2cc(CN(CCN(C)C)C(=O)Nc3ccc(Cl)cc3)c(=O)[nH]c2c1,0.3,4,?,-4,16%,2.3,2.3
CC(C)=CCC/C(C)=C/CNC(=O)C[C@H]1C[C@H](C(=O)N2CCCCC2)[C@@]2(C)c3[nH]c4cc(-c5ccco5)ccc4c3CCN2C1=O,·,2,·,·,-3%,·,3.5
